Mtb hypoxia rep – reduces hypoxia-regulated biosensor signal in M. tuberculosis; M. tuberculosis hypoxia-regulated fluorescent reporter, fluorescence; fluorescence inhibition, % (no concentration beside the values); 300,000 tested, 0.1% active; AID 1159583;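 active = 35 to 45% if threefold the growth effect, above 45% if 1.5-fold the growth effect; inactive = the rest, general growth blockers included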;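 also: wells of about 50 µL received 100 nL stock; 0% = vehicle wells and 100% = reference inhibitor wells; whole bacteria with a GFP reporter of the hypoxia response; strong numbers were not always called active; many hits fall short of the cut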
RN4220 kill – kills Staphylococcus aureus RN4220 | S. aureus RN4220 growth, OD600, 16 h | inhibition, % (concentration not given with the values) | AID 1259311 | 330,000 tested, 0.33% active;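 active = z-score of -3 or lower and OD600 up to 0.18 on both plates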;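 also: plate controls were untreated cells for no effect and reference antibiotic for full effect; stock transfer was 100 nL into about 80 µL; one replicate is shown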
Bead autofluor – counter-screen for toxin protease inhibitors: compound fluorescence. compound autofluorescence counterscreen, microsphere flow cytometry; stronger effect = higher value. fluorescence intensity (concentration not given with the values). 360,000 tested, 3.1% active. AID 624483;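 active = at least 3 SD above the mean of all compounds, about 16000 in these data; inconclusive = too few beads counted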;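 also: 100 nL of 1 mM stock went into each well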
PrP 5UTR inh – inhibition of PrP 5' UTR reporter expression; 340,000 tested, 0.35% active; cell-based PrP 5' UTR mRNA reporter, plate reader; inhibition, % (no concentration beside the values);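 active = every replicate at 50% or more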;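 also: 0 = median of the neutral control wells; tested in H4 reporter cells; numbers are from one replicate; inactives centre near -14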
Sa ugtP lethal – kills S. aureus RN4220 lacking UgtP; S. aureus RN4220 ugtP deletion, OD600 growth, 16 h; some inactives read as strong as hits; AID 1259309; growth inhibition, % (test concentration not listed); 330,000 tested, 0.54% active;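 active = z-score under -3 and OD600 up to 0.15 on both plates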;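 also: plate controls were untreated wells for no effect and antibiotic for full effect; wells of about 80 µL received 100 nL stock; the first replicate is given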
BJeLR lethal – BJeLR cell viability loss; inhibition, % (no concentration beside the values); 300,000 tested, 0.17% active; BJeLR (HRASV12) viability, CellTiter-Glo ATP luminescence, 48 h; reference of the scale not given here;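 active = replicate mean above 50%; inconclusive = above 50% but judged a plate artefact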;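 also: 50 nL library stock added to about 25 µL; numbers are from one replicate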
Mtb hypoxia rep growth – also measured in Mtb hypoxia rep; calls as there; growth inhibition, %; measured here: M. tuberculosis growth (absorbance);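 0% = vehicle and 100% = reference antibiotic; read after six days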
Active calls of the source: *; ? = inconclusive; nt = no result given.

SMILES	Mtb hypoxia rep	Mtb hypoxia rep growth	RN4220 kill	Bead autofluor	PrP 5UTR inh	Sa ugtP lethal	BJeLR lethal
Cc1cc(=O)[nH]c(Nc2c(C)n(C)n(-c3ccccc3)c2=O)n1	nt	nt	-2.9	5122	-13	3	-3
C=CCn1c(SCC(=O)NC)nnc1C12CC3CC(CC(C3)C1)C2	7	6	1.4	3790	-5	-1	-9
CCOC(=O)c1ccc(N=C2SC(C(=O)NCCc3ccccc3)CC(=O)N2C)cc1 (stereo unspecified)	-7	2	1.2	4524	-10	4	-7
Nc1nc2ccc(C(=O)Nc3ccc(N4CCOCC4)cc3)cc2s1	4	4	-2.5	3943	-25	-15	nt
COc1cccc(CNC(=O)C2CCC(CNS(=O)(=O)c3cccc4nsnc34)CC2)c1 (stereo unspecified)	9	9	-1.3	5227	-13	8	-8
CC(C)N1C(=O)CCC1C(=O)N1CCC(Cc2ccccc2)CC1 (stereo unspecified)	0	-1	-3.4	5431	-5	-3	4
O=C(Cc1ccc(F)cc1)Nc1c2c(nn1-c1cccc(Cl)c1)CS(=O)C2 (stereo unspecified)	3	2	3.7	3037	0	-2	6
CCCCNC(=S)NNC(=O)C1=NN(c2cc(C)ccc2C)C(=O)CC1	-2	-2	1.5	3794	13	-6	-11
CCOc1ccc(CCNC(=O)COc2cccc(-n3cnnn3)c2)cc1OCC	8	14	1.9	6578	-3	5	2
Cc1cccc(N2CCN(S(=O)(=O)c3ccc4c(c3)n(C)c(=O)c(=O)n4C)CC2C)c1 (stereo unspecified)	-3	-3	-0.2	19587*	-13	-3	2
COC(=O)c1sccc1N/N=C/c1ccc(OC)c(OC)c1OC	nt	nt	nt	6989	-94	nt	-3
CCCCn1c(N)c(N(CC(C)C)C(=O)CC(NC(=O)c2ccccc2)c2ccccc2)c(=O)[nH]c1=O (stereo unspecified)	0	-3	1.4	4915	-23	3	0
Cc1ccc(NC(=O)NC2=N/C(=C(/C#N)C(=O)N3CCCC3)c3ccccc32)cc1	1	1	-2.0	10180	-8	-6	-6
CC(=O)N/C(=C\c1ccccc1)C(=O)OCC(=O)c1c(N)n(C)c(=O)n(C)c1=O	5	7	5.9	3499	-6	4	nt
CC(C)(C)c1ccc(CSc2nnc(-c3ccccn3)n2Cc2ccco2)cc1	9	3	0.9	3977	-16	49	11
Cc1cccc(NC(=O)CNC(=O)C23CC4CC(CC(Cl)(C4)C2)C3)n1	-2	-1	3.9	4580	-2	11	-1
COc1ccc(N(CC(=O)Nc2cc(C)cc(C)c2)S(=O)(=O)c2ccccc2[N+](=O)[O-])c(OC)c1	9	-3	24	4344	-14	-18	-10
CC1=C(C(=O)Nc2cc(C(=O)N3CCN(c4cccc(C)c4C)CC3)ccc2C)SCCO1	0	-4	-4.1	5960	7	-10	-14
O=C(CSc1nnc(NC(=O)c2ccccc2C(=O)O)s1)Nc1ccccc1Cl	1	-4	4.2	4927	-11	1	4
COc1ccc2nc(NC(=O)c3ccc(Br)s3)sc2c1	3	7	2.2	3051	-119	-8	7
COc1ccccc1N(CC(=O)NCCSc1ccccc1)S(=O)(=O)c1ccccc1	4	9	3.0	5781	-28	9	7
COC(=O)c1scc(C)c1N/N=C(\C)c1ccc(F)cc1	nt	nt	nt	23635*	-11	nt	5
FC(F)Oc1cccc(NC(=S)N2CCN(c3ccccn3)CC2)c1	-9	5	5.5	2104	-16	5	-4
Nc1c(C(=O)Nc2ccccc2)sc2nc3c(c(-c4ccco4)c12)CCCC3	8	4	6.1	4346	7	-13	5
CCc1nnc(NC(=O)CSc2nnc(CNc3ccc(C)cc3)n2C)s1	4	6	1.9	3801	-21	6	-1

Further results follow.
SMILES	Mtb hypoxia rep	Mtb hypoxia rep growth	RN4220 kill	Bead autofluor	PrP 5UTR inh	Sa ugtP lethal	BJeLR lethal
CCC(C)[C@H](NC(=O)N1CCC(Cc2ccccc2)CC1)C(=O)O (stereo partly specified)	12	3	-1.4	3129	nt	2	5
Cc1nn(C)c(C)c1/C=N/NC(=O)CCn1nc(C)c([N+](=O)[O-])c1C	nt	nt	nt	2413	-7	nt	1
CCC(=O)Nc1ccc(C(=O)CSc2nnc(-c3ccc(O)cc3)n2CC2CCCO2)cc1 (stereo unspecified)	6	1	0.0	23574*	-18	-5	20
CCC(C)NCC(=O)Nc1ccc(S(N)(=O)=O)cc1 (stereo unspecified)	4	4	3.3	4597	-30	5	-5
Nc1nnc(CC(=O)NN=Cc2ccc(-c3cccc(C(=O)O)c3)o2)s1	-17	8	-1.6	nt	nt	-5	nt
CCCCCCC(=O)N/N=C/c1c(O)n(C2CC2)c(=S)[nH]c1=O	14	10	2.4	4213	-25	5	8
COc1cc([N+](=O)[O-])cc(C=NNC(=O)C(C)Nc2ccccc2C)c1O (stereo unspecified)	7	5	12	nt	nt	4	nt
CCCCCN(C(=O)CCC(=O)OCc1cccc(Cl)c1)c1c(N)n(CCCC)c(=O)[nH]c1=O	7	2	-0.3	?	-4	7	-11
Cc1cc(Cl)nc2ccc(Cc3ccc4nc(Cl)cc(C)c4c3)cc12	5	10	1.8	5037	-10	-11	4
CS(=O)(=O)Nc1ccc2c3c(cccc13)CC2	18	8	9.3	2462	-23	1	6
CC(=O)c1ccc(OC(NC(=O)c2ccco2)C(Cl)(Cl)Cl)cc1 (stereo unspecified)	-3	-4	1.9	9912	-30	-3	7
O=C(NC1CCCCC1)c1cc(S(=O)(=O)N2CCCCC2)ccc1N1CCOCC1	0	-2	5.1	6203	-11	10	nt
CCOC(=O)CN=C1CC(C)(C)CC2=C1Sc1ncnc(N(C)C)c1N2	7	2	7.8	11425	nt	6	-18
Cc1cc(Nc2ccc3c(c2)OCCO3)c2ccccc2n1	-3	-6	0.7	2997	0	-2	0
O=c1c(C=NN2CCOCC2)c(C(F)(F)F)[nH]n1-c1ccccc1	9	6	3.2	nt	nt	-2	nt
OCc1cc(-c2ccccn2)no1	9	6	6.8	3875	-8	4	10
COc1ccccc1C(=O)NNC(=O)CCC(=O)NCc1ccccc1	11	1	0.3	6576	-5	11	14
Cc1ccc(-n2nc3c(=O)n(C(C)C(=O)NCc4ccc5c(c4)OCO5)nc(C)c3c2C)cc1 (stereo unspecified)	4	1	1.8	5307	-6	3	-2
CS(=O)(=O)N1N=C(c2cccs2)CC1c1ccc(F)cc1 (stereo unspecified)	11	3	1.5	7815	-26	4	-4
O=C(Nc1cc(Cl)cc(Cl)c1)C(NCC1CCCO1)c1ccccc1 (stereo unspecified)	7	0	-2.4	2176	-15	-5	0
O=C(Nc1ccc(-n2cnnn2)cc1)C1CCCCC1	5	8	-16	3186	-20	-9	1
C=CCn1c(NCc2cc(Cl)ccc2O)nc2ccccc21	11	12	-10	3950	-1	-6	-2
Cc1ccc(-c2nnc(NC(=O)CCS(=O)(=O)c3ccc(F)cc3)o2)c(C)c1	6	3	-2.2	5990	-4	23	1
O=C1c2cccnc2C(=O)N1Cc1ccc(S(=O)(=O)N2CCN(c3ccccc3)CC2)cc1	-2	1	4.1	4629	-5	4	7
CCOc1ccc(-c2noc(CCC(=O)NC3CCCCC3)n2)cc1OC	-6	-9	-1.8	4085	-13	7	2

More entries follow.
SMILES	Mtb hypoxia rep	Mtb hypoxia rep growth	RN4220 kill	Bead autofluor	PrP 5UTR inh	Sa ugtP lethal	BJeLR lethal
CCn1nc(C)c(Br)c1C(=O)Sc1ccccc1Cl	1	-2	20	nt	-20	87*	4
COCCN(C(=O)/C=C/c1ccccc1)c1c(N)n(Cc2ccccc2)c(=O)[nH]c1=O	7	-5	4.3	4620	-2	2	-2
CC(C)NC(=O)NC(=O)COC(=O)Cc1c(F)cccc1Cl	8	12	1.6	2005	-18	7	-9
CCC1=C/C(=C/c2sc3ccccc3[n+]2CC)CC(C)(C)C1	15	5	3.6	nt	-20	2	1
CSC1CCCCC1(O)CSc1nc2c(cc1C#N)CCCC2 (stereo unspecified)	2	4	6.8	11070	8	23	-6
CC(=O)C1=C(O)C(=O)N(c2cccc(Br)c2)C1c1ccccc1Cl (stereo unspecified)	nt	nt	nt	3729	-23	nt	6
COc1cc2c(cc1OC)[C@H](C)N(C(=O)COc1ccccc1)CC2	1	-2	4.2	3457	5	5	2
Nc1nonc1-n1nnc(C(=O)NN=Cc2ccc(OCc3cccc(Cl)c3)cc2)c1CN1CCCCC1	0	-2	1.5	nt	nt	8	nt
COc1ccc(C(CNc2ccc(S(C)(=O)=O)cc2[N+](=O)[O-])N(C)C)cc1OC (stereo unspecified)	-11	-2	2.3	3793	-4	5	5
Cc1cccc(C)c1NC(=O)Cn1c(=O)c2cccn2c2ccccc21	2	5	1.8	6313	-14	-1	-4
Cc1ccccc1CC(=O)NC1CCN(C)CC1	8	9	3.6	4268	-9	5	6
Cc1ccc(-c2noc(CN(C)C(=O)Nc3ccc(F)cc3)n2)cc1	7	-2	0.5	2585	-6	-1	3
CCOC(=O)c1cnc2c(C)cc(C)cc2c1NCCCN1CCOCC1	9	2	0.8	3026	0	4	10
COc1ccc(C(=O)NCc2nnc(SCC(=O)Nc3cc(OC)ccc3OC)o2)cc1	6	3	-0.3	4286	-7	-5	-3
O=C1CN2NC(=S)N(c3ccc(Cl)cc3)C2=CN1c1ccc(Cl)cc1	13	5	-1.5	4216	-22	3	-1
CCOc1c(Br)cc(C=NNC(=O)c2ccccc2)cc1OC	-5	-1	-0.6	nt	nt	10	nt
CCCC(=O)NC(=S)N1CCN(c2ccc([N+](=O)[O-])cc2)CC1	nt	nt	3.8	2043	-72	1	-12
CCCn1c(NCc2cccc(OC)c2OC)nc2ccccc21	6	13	2.2	3138	-20	5	3
Cc1ccccc1C(=O)N/N=C/c1ccc(OCC(=O)N2CCCCC2)cc1	nt	nt	nt	4262	-17	nt	-1
Cc1ccc(NC(=O)CN2CCC(NC(=O)c3cccc(F)c3)CC2)cc1C	-4	6	0.7	3919	-20	3	-4
Cn1c(SCC(=O)Nc2ccc3c(c2)CCC3)nnc1C1CC1	-8	1	3.8	3746	-11	5	nt
CN1CC=C(c2c[nH]c3ccccc23)CC1	5	13	-14	5752	-16	-1	13
CN1CCN(c2cc(N3CCCCCC3)c(F)cc2[N+](=O)[O-])CC1	15	7	5.8	2072	-17	-3	6
COc1ccc(CNC(=O)C2CC(c3ccc(C(F)(F)F)cc3)=NO2)cc1 (stereo unspecified)	14	12	6.2	4044	29	12	-3
COC(=O)c1ccc(OC(=O)CCc2cc(OC)c(OC)c(OC)c2)cc1	9	9	3.3	4731	-29	4	-5

Next part
SMILES	Mtb hypoxia rep	Mtb hypoxia rep growth	RN4220 kill	Bead autofluor	PrP 5UTR inh	Sa ugtP lethal	BJeLR lethal
CC12COC3(C(=O)Nc4nccs4)CC1CCC32C (stereo unspecified)	0	5	3.2	3691	-10	0	-12
COc1ccccc1-c1c(C#N)c(N)nc2c1CCC2	17	10	2.1	5939	-20	3	-1
CCN1C(=O)C2(C(C(=O)c3ccc(C)o3)=C(O)C(=O)N2CCCN(C)C)c2ccccc21 (stereo unspecified)	3	15	2.3	5558	nt	3	0
CCOCCOC(=O)C(C)Sc1n[nH]c(=O)[nH]c1=O (stereo unspecified)	9	5	4.5	2542	-22	-2	0
O=C(NCC(c1ccco1)N1CCCC1)c1ccc(Cl)c(S(=O)(=O)N2CCc3ccccc32)c1 (stereo unspecified)	1	-5	1.5	8349	-21	10	nt
CCCC(c1nnnn1CC(=O)OCC)N(Cc1cc2c(C)cc(C)cc2[nH]c1=O)C1CCCC1 (stereo unspecified)	nt	nt	5.9	2787	-8	7	0

Among those listed so far, these have a nitro group on carbon:
SMILES	Mtb hypoxia rep	Mtb hypoxia rep growth	RN4220 kill	Bead autofluor	PrP 5UTR inh	Sa ugtP lethal	BJeLR lethal
COc1ccc(N(CC(=O)Nc2cc(C)cc(C)c2)S(=O)(=O)c2ccccc2[N+](=O)[O-])c(OC)c1	9	-3	24	4344	-14	-18	-10
Cc1nn(C)c(C)c1/C=N/NC(=O)CCn1nc(C)c([N+](=O)[O-])c1C	nt	nt	nt	2413	-7	nt	1
COc1cc([N+](=O)[O-])cc(C=NNC(=O)C(C)Nc2ccccc2C)c1O (stereo unspecified)	7	5	12	nt	nt	4	nt
COc1ccc(C(CNc2ccc(S(C)(=O)=O)cc2[N+](=O)[O-])N(C)C)cc1OC (stereo unspecified)	-11	-2	2.3	3793	-4	5	5
CCCC(=O)NC(=S)N1CCN(c2ccc([N+](=O)[O-])cc2)CC1	nt	nt	3.8	2043	-72	1	-12
CN1CCN(c2cc(N3CCCCCC3)c(F)cc2[N+](=O)[O-])CC1	15	7	5.8	2072	-17	-3	6

Rows were taken by chance; overall some 4.1% were active at least once.
